TRPML1 ag – human mucolipin-1 channel agonism; TRPML1-expressing cells, Ca2+ dye fluorescence, FDSS; host cell line not named in the record; reference of the full effect not given here; AID 624414; 410,000 compounds, 0.12% hits; activation, % (no concentration beside the values); Q9GZU1; in the data active = activation above about 50%; inconclusive = about 30% to 50%; inactive = below about 30%; also: 0% is about no effect; the text of the record puts the active cut at 80%
Target sequence (Q9GZU1 whole entry, looked up): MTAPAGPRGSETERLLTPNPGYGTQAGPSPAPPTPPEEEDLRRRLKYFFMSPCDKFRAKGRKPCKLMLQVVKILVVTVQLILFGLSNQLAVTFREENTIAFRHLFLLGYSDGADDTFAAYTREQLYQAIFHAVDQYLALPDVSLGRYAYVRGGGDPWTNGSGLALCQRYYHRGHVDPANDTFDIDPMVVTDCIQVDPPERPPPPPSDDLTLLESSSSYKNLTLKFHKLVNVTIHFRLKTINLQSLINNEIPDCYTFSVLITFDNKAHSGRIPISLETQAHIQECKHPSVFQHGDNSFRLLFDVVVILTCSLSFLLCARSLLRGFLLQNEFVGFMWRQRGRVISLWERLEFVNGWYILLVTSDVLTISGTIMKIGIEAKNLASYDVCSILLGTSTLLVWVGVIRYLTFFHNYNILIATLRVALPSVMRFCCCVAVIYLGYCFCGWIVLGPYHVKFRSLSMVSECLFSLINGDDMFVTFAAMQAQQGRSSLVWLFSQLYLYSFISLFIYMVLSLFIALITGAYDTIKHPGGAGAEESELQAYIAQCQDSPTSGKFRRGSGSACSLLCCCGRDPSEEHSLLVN
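Calcium fluorescence on an FDSS kinetic reader gave the read-out. Tet-induced TRPML1-DL cells were plated overnight, dye-loaded (Ca8 with quencher, 45-90 min, room temperature, dark), then read 110 s after compound addition, and again 110 s after 4uM final 54-4 (EC80).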
PINK1 modulator – modulators of PINK1 expression; Potency, µM (series often up to 76.6 µM), without a hit: at the top dose activation (PINK1 increase), most hits filed as activators; PINK1 immunofluorescence, high-content cytometry, 24 h; 410,000 compounds, 0.2% hits; active = well fitted activation curve with a large enough effect; inconclusive = small, poorly fitted or top-dose-only effect; inactive = flat fitted curve, though single readings scatter; cell line not stated here;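 also: potency is read from the fitted curve at half-maximal effect; % of control where 0% means no effect; nearly all actives have a fitted effect of over 65% in size; a mitochondrial uncoupler was the plate control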
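Measures PINK1 amount and localization on or inside mitochondria by immunofluorescence. Stable cells get compounds at 5 concentrations for 24 hours before fixation and staining; CCCP controls included.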
D2 agonist – human D2 receptor agonism in beta-arrestin assay; P14416; 360,000 compounds, 0.084% hits; AID 624465; activation, % (test concentration not listed); DiscoveRx PathHunter D2 beta-arrestin, luminescence, 90 min; 100% = 57 uM dopamine signal; in the data active = activation above about 40%; inconclusive = about 15% to 40%; inactive = below about 15%; also: compound concentration not given in the record; the text of the record calls up to 30% inactive
Target sequence (P14416 whole entry, looked up): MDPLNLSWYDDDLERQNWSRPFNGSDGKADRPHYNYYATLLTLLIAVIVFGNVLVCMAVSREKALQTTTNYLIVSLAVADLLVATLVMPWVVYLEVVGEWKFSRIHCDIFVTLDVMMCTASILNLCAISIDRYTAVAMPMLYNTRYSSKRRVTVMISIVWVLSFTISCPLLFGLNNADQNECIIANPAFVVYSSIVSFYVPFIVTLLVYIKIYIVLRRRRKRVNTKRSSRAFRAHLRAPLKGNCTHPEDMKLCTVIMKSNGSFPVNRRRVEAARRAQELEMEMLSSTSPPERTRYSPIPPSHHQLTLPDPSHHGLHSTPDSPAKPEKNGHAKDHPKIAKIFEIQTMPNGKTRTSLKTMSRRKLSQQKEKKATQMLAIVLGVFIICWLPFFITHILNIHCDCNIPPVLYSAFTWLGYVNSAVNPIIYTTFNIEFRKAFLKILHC
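Agonist mode: compounds alone added to overnight-plated D2 PathHunter cells for 90 min at 37 C, with 57 uM final dopamine (EC100) defining full response. Beta-arrestin recruitment detected by chemiluminescent reagent, read after 1 h at ambient temperature.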
CtBP-E1A blk – CtBP/E1A binding inhibition; activity change, % (no concentration beside the values); AID 651724; AlphaScreen GST-E1A/His-CtBP binding, 1536-well; hits give low values; control for the full effect not named in the record; 340,000 compounds, 0.49% hits; in the data active means activity change below about -65%; inconclusive means about -30% to -65%; inactive means above about -30%; also: % is scaled to controls: 0 for no effect and ±100 for the full control effect
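GST-E1A and His-tagged CtBP (125 nM each as 5X stock) were preincubated with pin-transferred compound for 2 h at 37 °C in the dark, then glutathione donor and nickel acceptor beads were added for 1 h before AlphaScreen reading.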
Six1-Eya2 inh – inhibitors of human Six1/Eya2 interaction. AlphaScreen GST-Six1/His-Eya2 binding, biochemical; hits give low values; control for the full effect not named in the record. activity change, % (concentration not given with the values). 360,000 compounds, 0.56% hits. AID 651725; in the data active = activity change below about -65%; inconclusive = about -30% to -65%; inactive = above about -30%; also: % is scaled to controls: 0 for no effect and ±100 for the full control effect
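GST-Six1 + His-Eya2 (5X stock: 250/500 nM); Tris pH 8.0, 300 mM NaCl, 0.05% BSA, 0.02% Tween 20; GSH donor/Ni acceptor beads; 1 h 37 °C dark; AlphaScreen readout.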
TRPML1 blocker – blocks the human TRPML1 channel; TRPML1-inducible cells, Ca2+ dye fluorescence, FDSS; hits give low values; inhibition of EC80 agonist-evoked calcium signal; activity change, negative = inhibition, % (test concentration not listed); 390,000 compounds, 0.02% hits; Q9GZU1; in the data active means activity change below about -50%; inconclusive means about -30% to -50%; inactive means above about -30%;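 also: stimulus is agonist 54-4 at its EC80 concentration; % is scaled to controls: 0 for no effect and ±100 for the full control effect; compound concentration not given in the record; the text of the record puts the active cut at -80%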
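Tet-induced TRPML1-DL cells loaded with Ca8 no-wash calcium dye were read kinetically on FDSS. Compound addition was followed by EC80 agonist 54-4 (4 uM final); inhibition was read over 110 s.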
Numbers without * were called inactive; u = inconclusive; x = no result given; & = joins results of further samples; [ ] = another dose, or the depositor's remark. No enrichment for hits (roughly 1% active in at least one column).

SMILES	TRPML1 ag	PINK1 modulator	D2 agonist	CtBP-E1A blk	Six1-Eya2 inh	TRPML1 blocker
O=C(OCc1cn([C@@H]2CN(C(=O)c3cccs3)[C@@H](c3ccc(Cl)cc3)C[C@H]2O)nn1)c1ccccc1	-0.7	0.2%	-10.4	2.5	2.9	0.4
O=C(Nc1ccc(C(O)c2ccccc2)cc1)[C@@H]1O[C@H](CO)[C@@H](O)[C@H]1O (stereo partly drawn)	-0.2	1.3%	-0.6	-10.6	5.9	14.3
O=C(CN1CCN(C(c2ccccc2)c2ccccc2)CC1)N1CCN(c2ccccc2)CC1	-1.0	u	-6.3	x	-19.1	37.0
O=c1[nH]c(SCc2ccccc2)nc2c1sc1ccccc12	1.1	3.7%	u	-15.0	2.2	3.6
Cn1c(C(=O)O)cc2cc(F)ccc21	0.3	-3.9%	-0.8	-8.6	-0.2	-8.7
CCOC(=O)C1=C(COC(=O)CCCOc2ccccc2)NC(=O)NC1C (stereo not drawn)	2.9	-1.3%	-7.1	9.6	-10.3	11.9
Cc1ccc(S(=O)(=O)N2CCN(C(=O)COC(=O)CNC(=O)c3ccc(Cl)cc3Cl)CC2)cc1	-0.6	0.7%	-4.7	5.6	3.6	3.0
CCOc1ccccc1-c1nc(-c2ccc(C)nc2OC)no1	4.1	-0.1%	-3.1	-3.7	14.1	4.4
Cc1ccc(C)c(NC(=S)NC2CC3CCCC(C2)N3CC(C)C)c1 (stereo not drawn)	-0.3	0.8%	-2.8	-1.6	-2.9	-2.7
Cc1ccc(S(=O)(=O)N2CCC(=O)N(CCOC(=O)Nc3ccccc3C)CC2)cc1	-0.7	1.5%	-6.1	9.1	5.4	14.2
Cc1ccc(NC(=S)N2CCN(C(=O)C3CCCO3)CC2)cc1 (stereo not drawn)	-0.2	-0.9%	-0.5	2.9	14.7	11.7
COc1cc2c(cc1OC)C1=NC(=O)CN1C(SCc1ccccc1C)=N2	0.0	x	-2.3	-3.7	-11.0	4.9
Cc1cc(F)ccc1NC(=O)Cn1c(C)csc1=O	-0.4	-0.6%	2.7	x	1.1	4.8
COc1ccc(C)cc1NC(=O)COc1cc(=O)n(C)c2ccccc12	-0.8	1.5%	x	x	x	3.7
Cc1cc(NC(=O)CSc2nc3[nH]c(=O)cc(O)c3s2)ccc1Br	-0.7	0.0%	0.8	2.5	-0.5	0.8
C#CCNC(=O)C(C)c1ncc(C(F)(F)F)cc1Cl (stereo not drawn)	1.5	2.8%	-0.3	x	-6.0	0.9
N/C(=N\OC(=O)C(c1ccccc1)c1ccccc1)c1ccccn1	6.4	9.9%	0.6	-0.3	-1.6	2.2
CC1CCN(c2nc(/C=C/c3ccccc3)nc3ccccc23)CC1	10.3	u	-3.3	0.0	28.6	37.2
O=S(=O)(c1ccccc1)c1nnn2c1nc(NC1CCCCC1)c1sccc12	0.7	2.8%	x	x	x	38.3
O=C(c1cc(-c2ccc(Cl)s2)nc2ccccc12)N1CCCC1	-0.1	5.0%	0.0	7.4	2.7	8.5
CN(C)S(=O)(=O)c1ccc(Cl)c(C(=O)NNC(=O)Cc2nc3ccccc3n2C)c1	0.8	2.3%	-3.2	u	-10.8	0.5
CN(C)CCC(c1ccccc1)c1ccccn1 (stereo not drawn)	0.6&0.1&-0.3	0.5%&0.7%&1.0%	-3.8&-6.8&-4.7	-0.1&4.6&3.5	5.1&-10.3&7.2	9.0&-13.1&-11.6
CCOc1ccc(Br)cc1S(=O)(=O)NC1CC(C)(C)NC(C)(C)C1	0.2	0.4%	-3.7	-10.3	-17.0	5.3
COc1ccc(C(=O)Nc2ccnn2C2CCN(C(C)CSC)CC2)cc1 (stereo not drawn)	-0.6	0.3%	-11.0	2.6	1.9	17.1
Cc1nn(C)cc1CN1CCC(CO)(CCOc2ccccc2)CC1	-0.1	0.7%	-4.0	-3.0	0.9	-1.8

The closing six entries of the section before are carried over, then new ones follow:
SMILES	TRPML1 ag	PINK1 modulator	D2 agonist	CtBP-E1A blk	Six1-Eya2 inh	TRPML1 blocker
O=C(c1cc(-c2ccc(Cl)s2)nc2ccccc12)N1CCCC1	-0.1	5.0%	0.0	7.4	2.7	8.5
CN(C)S(=O)(=O)c1ccc(Cl)c(C(=O)NNC(=O)Cc2nc3ccccc3n2C)c1	0.8	2.3%	-3.2	u	-10.8	0.5
CN(C)CCC(c1ccccc1)c1ccccn1 (stereo not drawn)	0.6&0.1&-0.3	0.5%&0.7%&1.0%	-3.8&-6.8&-4.7	-0.1&4.6&3.5	5.1&-10.3&7.2	9.0&-13.1&-11.6
CCOc1ccc(Br)cc1S(=O)(=O)NC1CC(C)(C)NC(C)(C)C1	0.2	0.4%	-3.7	-10.3	-17.0	5.3
COc1ccc(C(=O)Nc2ccnn2C2CCN(C(C)CSC)CC2)cc1 (stereo not drawn)	-0.6	0.3%	-11.0	2.6	1.9	17.1
Cc1nn(C)cc1CN1CCC(CO)(CCOc2ccccc2)CC1	-0.1	0.7%	-4.0	-3.0	0.9	-1.8
c1ccc(-c2cc3ncc4c(n3n2)-c2ccccc2OC4)cc1	-0.3	2.8%	x	x	x	-1.3
COc1ccccc1N1CCN(C2CCN(S(=O)(=O)c3ccc4ccccc4c3)CC2)CC1	1.6	-1.2%	2.7	-9.1	-7.6	3.0
Cc1ccc(CS/C(Nc2ccccc2C)=C(\C#N)C(=O)NCc2ccco2)c(C)c1	2.9	0.5%[38.3 µM]	-2.0	-7.1	-7.7	20.3
Fc1cc2nc(-c3ccncc3)[nH]c2cc1F	-0.1	3.6%	2.8	0.0	4.0	-8.9
CNc1ncnc2c1ncn2[C@H]1CN(Cc2ccc(OC)cc2)C[C@@H](CO)O1	2.7	0.6%	-3.6	1.1	1.0	75.7
C/C(CC(=O)Nc1ccccn1)=N\NC(=O)c1ccc(C)cc1	1.0	0.4%	0.0	-3.2	0.5	17.1
CCCCNC(C(=O)Nc1cccc(S(=O)(=O)N2CCOCC2)c1)c1ccccc1 (stereo not drawn)	1.0	1.0%	-3.9	-7.4	-2.6	-6.2
CN(C(=O)c1cccc([N+](=O)[O-])c1)c1ccccc1C(=O)NCc1ccccc1	-0.2	-0.8%	-1.8	2.8	0.1	2.7
COc1ccc(C(=O)NC(=O)CSc2n[nH]c(N)n2)cc1	-0.2	0.1%	-2.0	-5.6	-12.5	11.7
O=c1nc2onnc2c(C=NO)[nH]1	-0.2	1.3%	-5.1	1.4	3.1	10.6
Cc1ccc(C)c(NC(=O)NCc2ccccn2)c1	1.9	0.3%	-4.1	-6.1	-2.0	-2.6
CCS(=O)(=O)CCSc1nc2c(cc1C#N)CCCC2	-0.4	x	1.8	4.3	6.3	-6.8
Cc1cccc(-n2c(=O)[nH]c3c(C(N)=O)nc(-c4ccccc4Cl)nc32)c1	-0.2	4.0%	-4.9	5.4	3.3	27.6
O=S1(=O)CCOC[C@H](CC2CCCCC2)N1Cc1ccc(F)cc1	0.5&0.5	6.8%	-1.0	3.4	1.1	7.7
Clc1ccccc1-c1cc(COc2ccc3ccccc3c2)no1	3.5	2.0%	-1.9	20.4	55.2	-3.8
Cc1nc2ncnn2c(C)c1CCC(=O)Nc1ccc(S(=O)(=O)N2CCCCCC2)cc1	1.8	-1.7%	0.4	-12.7	2.5	4.7
COc1ccc(-n2c(=O)c3ccccc3n(CC(=O)NCC3CCCO3)c2=O)cc1 (stereo not drawn)	-0.1	-1.3%	0.9	-1.4	0.0	-6.5
CCOC(=O)C(c1ccccc1)C(Nc1cc(C(F)(F)F)cc(C(F)(F)F)c1)c1ccccn1 (stereo not drawn)	0.0	6.8%	0.2	6.9	3.2	-15.9
Cc1cccc(C)c1OCC(=O)Nc1cc(Cl)ccc1-n1cncn1	1.3	-1.1%	5.4	-7.4	2.3	-3.9
Cc1ccc(Cl)cc1NC(=O)c1cc(CN2CCCC2)on1	0.9	-1.0%	x	x	x	-10.1
COc1ccc(-c2ccc3c(c2)C2CC3CCN2)cc1 (stereo not drawn)	0.1	0.0%	-0.2	-5.6	-5.9	15.8
Cc1ccc(S(=O)(=O)NNC(=O)C23CCC(CC2)C3)cc1	-0.6	0.7%	1.0	2.0	-1.6	2.5
Cc1ccsc1C(=O)NNC(=O)Nc1ccc(Cl)c(Cl)c1	-0.7	-1.6%	-3.3	10.9	-1.1	-5.1
NS(=O)(=O)c1cccc(NC(=O)COC(=O)c2cc(-c3ccc(Cl)cc3)nc3ccccc23)c1	0.0	-1.6%	-2.7	x	0.4	2.0
Cc1cc(C)cc(NC(=O)CSc2nc(=O)n(CCN3CCOCC3)c3c2CCCC3)c1	0.4	0.3%	-3.4	9.5	-0.5	15.7

The results go on:
SMILES	TRPML1 ag	PINK1 modulator	D2 agonist	CtBP-E1A blk	Six1-Eya2 inh	TRPML1 blocker
COc1cccc(-n2c(=O)[nH]cc(C(=O)Nc3ccc4c(c3)OCCO4)c2=O)c1	0.3	0.2%	-1.8	0.0	23.2	-2.2
O=C(Nc1ccc2nc3n(c(=O)c2c1)CCCCC3)c1ccccc1Cl	-0.9	2.0%	-8.6	-10.0	-8.4	-6.7
CCCCN(C)Cc1c(C)[nH]c2ccc(Cl)cc2c1=O	1.1	x	-1.4	7.4	2.1	-2.6
CC1=C(C(=O)Nc2ccc(Cl)cc2)C(C(C)C)n2nc(SCc3cccc(C)c3)nc2N1 (stereo not drawn)	-1.3	1.7%	x	x	x	9.3
O=C(CN1CCCC1)N/N=C/c1ccc(-c2cccc(Cl)c2)o1	-1.1	1.1%	0.2	-8.8	-11.0	-2.7
O=C(CCc1[nH]c2ccccc2c1Sc1ccccc1)N(CCO)CCO	0.2	0.7%	-0.7	-0.6	-3.1	-1.0
CCn1cc(C(=O)O)c(=O)c2cc(Br)ccc21	1.7	-3.7%	0.5	8.3	9.7	-10.0
CCOc1ccc(NC(=O)C2CCCN(S(=O)(=O)c3ccc(-n4cnnn4)cc3)C2)cc1 (stereo not drawn)	0.7	6.4%	-1.8	6.0	25.1	-8.1
COC(=O)CN1C(=O)[C@@H]2[C@H](C1=O)[C@@H]1CC(C(=O)OC)=C[C@@H](C(=O)OC)[C@@H]3C1=C(C(=O)[C@@]3(C)NC(=O)c1ccccc1)[C@@H]2C	-0.6	1.4%	0.3	4.5	6.2	-2.7
CCN(Cc1ccccc1)S(=O)(=O)c1c(C)n(C)c(=O)n(C)c1=O	0.4	-3.8%	0.4	7.2	-0.5	-13.5
O=C(NCc1ccco1)c1cnc2n(c1=O)CCS2	0.3	2.9%[38.3 µM]	-0.4	11.0	-1.1	-4.2
O=C(NNC(=O)c1ccco1)c1csc(N2CCOCC2)n1	-0.1	-0.6%	-4.4	1.2	-3.3	-9.6
Cc1c(Cl)cccc1NC(=O)Nc1ccccc1C(N)=O	0.5	0.1%	-4.8	x	-0.9	5.8
Cc1ccc(Cl)cc1N1CCN(C(=O)c2cccn2-c2nnc(N3CCCC3)s2)CC1	3.7	-0.2%	x	x	x	6.9
O=C(c1cc2nc(-c3ccc(F)cc3)cc(C(F)(F)F)n2n1)N1CCCCC1c1cccnc1 (stereo not drawn)	1.1	10.1%	3.6	-1.1	-5.9	18.1
Nc1cc(N)nc(SCC(=O)Nc2ccc(Br)cc2Cl)n1	0.6	4.5%	-0.8	2.5	-14.3	-3.4
